RGS16-Gao – modulators of RGS16 binding to Galphao, primary screen, biochemical, human proteins, multiplexed bead flow cytometry. Regulator of G-protein signaling 16 (Homo sapiens) + Guanine nucleotide-binding protein …. bead-based flow cytometry RGS16-Galphao binding, fluorescence; actives lie on both sides. binding response (% of control), % at 10 µM. 220,000 compounds, 0.38% hits. AID 1441, 2008;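 active means below 25% or above 175%, edge rows of some plates excepted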;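 further: Galphao activated by GDP with aluminum fluoride before binding; 100% = wells without compound and 0% = beads without RGS; some results beyond the cut were filed as inactive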
Target sequence (O15492 whole entry, looked up): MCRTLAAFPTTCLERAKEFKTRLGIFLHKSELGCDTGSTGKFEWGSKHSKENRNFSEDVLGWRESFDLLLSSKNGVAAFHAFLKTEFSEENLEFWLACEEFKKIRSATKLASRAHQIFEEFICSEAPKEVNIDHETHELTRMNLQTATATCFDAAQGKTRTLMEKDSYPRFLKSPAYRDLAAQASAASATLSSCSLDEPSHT
Target sequence (P09471 whole entry, looked up): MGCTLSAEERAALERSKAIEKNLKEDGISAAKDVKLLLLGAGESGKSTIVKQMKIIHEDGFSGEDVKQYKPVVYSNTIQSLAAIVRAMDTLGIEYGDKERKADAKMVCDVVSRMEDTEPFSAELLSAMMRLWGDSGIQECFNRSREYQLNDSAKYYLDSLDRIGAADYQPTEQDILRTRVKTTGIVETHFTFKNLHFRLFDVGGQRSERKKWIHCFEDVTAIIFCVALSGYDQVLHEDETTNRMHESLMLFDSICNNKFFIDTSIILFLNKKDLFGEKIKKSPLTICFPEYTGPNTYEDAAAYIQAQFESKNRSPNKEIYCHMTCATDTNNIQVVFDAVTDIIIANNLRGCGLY
HSV augment – enhancers of HSV replication in host cells, fold increase, host cell viability; HSV replication augmentation in cells; maximum fold increase; 220,000 compounds, 0.005% hits; AID 1956, 2009;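 active means peak rise of 1.5-fold or more in the series; inconclusive means self-fluorescent or not available for retest; tested in PC3 cells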;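 further: first round at 10 µM; read as green reporter fluorescence; hits show the peak of a series up to 25 µM; 1 = signal of infected wells without compound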
INS promoter inh – inhibitors of insulin promoter-driven GFP, primary screen, imaging, TRM-6 cells (human fetal islet line), eGFP reporter, cell count; AID 1273, 2008; inhibition, % at 2 µM; reporter expression induced with tamoxifen; 130,000 compounds, 0.9% hits;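 active means inhibition above the mean plus 3 SD, with well images judged a real hit on visual review, cut at about 60% in these data, passing the limit was not always enough; inconclusive means inhibition over the cutoff but images rejected on review; inactive means inhibition not above the cutoff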
GALR2 ag – GALR2 receptor agonists, primary screen, cell-based. Galanin receptor type 2 (Homo sapiens), O43603. AID 803, 2007. GALR2-expressing cells, agonist activation read-out. 140,000 compounds, 0.48% hits. activation, %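 (tested at 5 µM)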;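 active means above mean plus 3 SD of all compounds, about 5% in these data, not always enough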;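 further: 0% = vehicle buffer wells and 100% = reference agonist at full effect; tested in CHO reporter cells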
Target sequence (O43603 whole entry, looked up): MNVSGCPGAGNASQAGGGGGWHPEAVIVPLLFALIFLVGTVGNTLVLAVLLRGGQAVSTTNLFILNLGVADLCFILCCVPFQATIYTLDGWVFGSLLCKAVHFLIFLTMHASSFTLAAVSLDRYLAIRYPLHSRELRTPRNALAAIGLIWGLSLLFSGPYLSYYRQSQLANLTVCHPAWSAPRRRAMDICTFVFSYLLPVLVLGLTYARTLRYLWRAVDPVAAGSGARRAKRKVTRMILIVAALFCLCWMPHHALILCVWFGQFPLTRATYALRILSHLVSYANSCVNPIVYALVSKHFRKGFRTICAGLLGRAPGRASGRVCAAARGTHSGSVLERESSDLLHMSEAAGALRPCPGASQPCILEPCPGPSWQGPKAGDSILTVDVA
PKD1 inh – inhibitors of human PKD1 kinase, biochemical, fluorescence polarization. PKD1 kinase fluorescence polarization assay. inhibition, %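 (about 10 µM by stock and volumes)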. 200,000 compounds, 0.056% hits;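 active means inhibition of 50% or more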;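 further: controls were vehicle for no effect and a reference inhibitor for full effect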
INS promoter inh cell count – also measured in INS promoter inh; calls as there; normalized cell count, %; measured here: cell count, toxicity; reference of the scale not given here;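 cells exposed to compound for 48 h; stained nuclei by imaging scaled within each plate; lower means fewer cells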
HSV augment primary fold – also measured in HSV augment; calls as there; fold increase; compound at 10 µM; measured here: primary screen fold increase 10 uM; tested in PC3 cells;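 GFP signal in the first replicate; 1 = infected wells without compound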
* marks the source's active call; other numbers are inactive results; i = inactive; ? = inconclusive; . = not tested or not shown.

mol,RGS16-Gao,HSV augment,HSV augment primary fold,INS promoter inh,INS promoter inh cell count,GALR2 ag,PKD1 inh
Cc1ccc(-n2c(SCC(=O)NCCN3C(=O)CSC3=O)nnc2-c2ccccc2)cc1,18*,i,1,-48,118,0.2,0
Cc1ccc(OCC(=O)N/N=C\c2ccc(-c3cccc(C(=O)O)c3)o2)c(C)c1,104,i,1.6,.,.,-1.1,-7
CCOc1cc(C2C(C(=O)OC(C)C)=C(C)N=C3SCCC(=O)N32)ccc1OC(C)=O (centres undefined),91,i,1.2,56,101,-1.1,-5
CCC(=O)Nc1cccc(NC(=S)NC(=O)c2cccs2)c1,108,i,0.91,14,122,0.4,-13
CCOC(=O)c1sc2ccccc2c1OC(=O)c1ccccc1,104,i,0.82,11,103,-4.0,-7
CCC(C)[C@H](NC(=O)NCCCN1CCOCC1)C(=O)OC (some centres undefined),104,i,0.98,-6,80,-2.9,-1
CCCC(=O)Nc1cccc(NC(=O)c2ccc3c(c2)OCCO3)c1,102,i,0.66,-15,105,-2.1,-1
CCN(CC)c1ccc(C=NCCc2ccc(S(N)(=O)=O)cc2)cc1,110,i,1.1,33,93,.,-5
CC(C)(C)c1nc2c(C#N)c(-c3ccc(Cl)cc3)ccn2n1,103,i,0.76,-11,58,0.5,1
Cc1cc(C(=O)CN2C(=O)c3ccccc3S2(=O)=O)c(C)n1CC1CCCO1 (centres undefined),89,i,0.83,6,64,-0.7,-19
COc1cc2c(cc1OC)CN(C(=O)c1sc(-c3cnccn3)nc1C)CC2,95,i,0.88,.,.,.,.
CC(=O)Nc1ccc(S(=O)(=O)/N=C2\C(=O)c3ccccc3C([O-])=C2n2cc[n+](-c3ccccn3)c2)cc1,89,i,0.9,.,.,.,.
O=C(CSCc1ccccc1Cl)N/N=C/c1ccco1,101,i,1,-55,88,.,-4
CCOC(=O)c1c(NC(=O)CSC2=NN3CCCC(=O)N=C3S2)sc2c1CCCCC2,109,.,.,-22,102,-2.2,-8
CCCN1C(=O)SC(CC(=O)Nc2ccccc2C)C1=O (centres undefined),98,i,1,40,132,-1.1,-1
O=C(CC1CCCCC1)NCc1ccco1,104,i,0.96,.,.,.,3
O=C(O)Cc1ccc(Oc2ncc(C(F)(F)F)cc2Cl)cc1,94,i,0.93,-38,103,.,-2
Cc1ccc(NC(=O)CN(C)C(=O)Cn2ccsc2=N)cc1,96,i,0.89,.,.,.,2
COc1ccc(-n2cc(CNC(C)c3ccncn3)c(-c3cccc(F)c3)n2)cc1 (centres undefined),103,i,0.97,-14,97,.,-2
CC(c1n[nH]c(=S)n1-c1ccc(F)cc1)N1CCCCC1 (centres undefined),112,i,1,-2,35,.,-8
Cc1cc(C)c2cc(CN(CCO)Cc3nnnn3Cc3ccccc3)c(=O)[nH]c2c1,101,i,0.97,22,125,-1.3,6
Cc1nn(C2CCS(=O)(=O)C2)c(C)c1C=O (centres undefined),97,i,0.86,49,80,.,-4
Cc1nn(CCOc2ccc(Br)cc2)c(C)c1[N+](=O)[O-],94,i,0.89,.,.,.,2
COCCN(C(=O)CCC(=O)Nc1ccccn1)C(C(=O)NCCC(C)C)c1ccc(OC)cc1 (centres undefined),96,i,0.9,.,.,0.1,-1
OCCC1CN(Cc2cc3c(cc2Cl)OCO3)CCN1C1CCCC1 (centres undefined),102,i,1.1,.,.,.,-2
CC(C)c1ccccc1NC(=S)N1CCN(Cc2ccc3c(c2)OCO3)CC1,100,i,1.1,16,92,.,0
CN1/C(=C\C=C(/C#N)C(=O)Nc2ccccc2F)C(C)(C)c2ccccc21,26,.,.,-59,100,1.0,-4
COc1ccc(Nc2c3c(nc4c(-c5ccccc5)c(C)nn24)CCC3)cc1,96,i,0.91,91*,161*,0.3,-5
COC(=O)C1C(c2ccc(OC)cc2)C(C(=O)OC)S(=O)(=O)C(CCN2CCCCC2)S1(=O)=O (centres undefined),96,i,0.87,.,.,.,1
CCC(C)(C)n1nnnc1CN1CCN(c2nc3cc(OC)ccc3cc2C#N)CC1,95,i,1.2,.,.,-2.9,1
Cc1ccccc1NC(=O)c1ccc(S(=O)(=O)C(F)F)cc1,99,i,0.82,3,58,-3.0,-7
CC1CCCCN1C(=O)NC12CC3CC(CC(C3)C1)C2 (centres undefined),158,i,0.95,10,88,-0.4,-2
Cc1ccc(C(=O)NN2C(=O)/C(=C/c3cn(C)c4ccccc34)SC2=S)cc1,97,?,.,-35,114,0.3,0
CCOC(=O)N1CCN(c2cc(N)c([N+](=O)[O-])cc2F)CC1,103,i,0.99,-37,103,-1.9,-5
O=C1Cc2ccccc2C(=O)N1OCc1ccc(Cl)cc1Cl,100,i,1.1,.,.,.,-6
O=C(CSc1nc(-c2ccco2)cc(C(F)(F)F)n1)NCc1cccs1,102,i,0.88,26,138,-1.0,0
O=C(NCc1cccnc1)c1ccc(COc2ccc(Cl)cc2Cl)o1,101,i,1,20,94,.,6
COc1ccc(CC(=O)Nc2nc3n(n2)C(c2ccccc2)CC(=O)N3)cc1OC (centres undefined),89,i,0.9,0,113,-0.9,0
CCCn1c(=O)c2c(nc3n2CCN3Cc2ccco2)n(C)c1=O,101,i,1,-28,108,.,-10
S=C(Nc1ccccn1)NC1CCCC1,98,i,0.93,-18,99,.,-2
CCN(CC)C(=O)CCSc1nnc(-c2ccco2)o1,107,i,0.98,.,.,.,0
CC(=O)Nc1ccc(S(=O)(=O)NC2(C(F)(F)F)C(=O)Nc3c2c(=O)[nH]c(=O)n3C)cc1 (centres undefined),100,i,1.1,14,101,-2.2,-4
CC(=O)N(/N=C1\Sc2ccccc2C1=O)c1cccc(C)c1,87,i,0.83,-3,141,-0.3,-6
CCOC(=O)C1=C(C)NC2=C(C(=O)C(C(=O)OC)C(C)C2)C1c1ccc(OC)c(O)c1 (centres undefined),104,i,1,24,112,-2.3,-7
Cc1cc(OC(=O)c2ccccc2Br)cc(=O)n1C,102,i,0.92,.,.,-1.4,17
Cc1nnc(SCc2cc(=O)[nH]c(N3CCN(C)CC3)n2)s1,103,i,1.1,-57,131,-1.5,-9
C=CCc1cccc(CNc2nc3ccccc3n2CCC)c1O,95,i,0.9,-25,63,-2.2,2
O=C1NC(c2ccccc2)=N/C1=C/c1ccco1,102,.,.,61,129,-0.2,1
O=C1COc2ccc3ccccc3c2CN1,106,i,1.1,-65,102,-2.0,-8
O=C(O)C1C2C=CC(O2)C1C(=O)NCCc1cccc(Cl)c1 (centres undefined),108,i,1,28,77,.,-5

Continued.
mol,RGS16-Gao,HSV augment,HSV augment primary fold,INS promoter inh,INS promoter inh cell count,GALR2 ag,PKD1 inh
O=C(C1CC(=O)N(C2CCCC2)C1)N1CCN(c2ccccc2F)CC1 (centres undefined),104,i,0.91,.,.,-1.2,2
CC(=O)Nc1ccc(NC(=O)CCNS(=O)(=O)c2cccc3nsnc23)cc1,93,i,1,.,.,.,-5
O=C(N/N=C/c1cccc([N+](=O)[O-])c1)c1cccc(Br)c1,100,i,0.98,-88,72,.,6
O=C(c1ccccc1-c1nc(-c2ccc(F)cc2)no1)N1CCCC1,91,i,1.2,.,.,-1.4,8
O=C(CCc1nnc(C2CCCCC2)o1)NCCCOc1cccnc1,94,i,0.93,.,.,.,2
CCc1cc(/C(Cc2ccccn2)=N\Nc2ccccc2)c(O)cc1O,99,i,1.1,.,.,.,4
COCCCNC(=O)CCCn1c(=O)c2ccccc2n(Cc2cccc([N+](=O)[O-])c2)c1=O,114,i,0.79,-71,109,.,-5
Cc1cc(C)c(Nc2ncnc(N)n2)c(C)c1,101,i,1,.,.,.,.
COc1ccc(-c2ccnc(-c3ccc(O)cc3)n2)cc1,90,i,0.79,.,.,.,2
CC/C=C/C(=O)N1CC2(CC(c3cccc(NC(=O)c4ccccc4)c3)=NO2)C[C@@H]1C(N)=O (some centres undefined),103,i,0.89,.,.,-1.1,-9
CC(C)NC(=O)CSCc1c(Cl)cccc1Cl,103,i,1,9,103,-1.5,-8
O=C(CN1C(=O)c2ccccc2S1(=O)=O)N1CCc2ccccc21,226,i,1,-356,99,-2.6,-6
Cc1cccc2cc(CN(CCCO)C(=O)Nc3cccc(Cl)c3)c(=O)[nH]c12,99,i,0.92,29,134,-2.1,0
COc1nc(SC)nc(Cl)c1Cc1ccc(OC(C)C)cc1,88,i,0.94,-62,50,-0.4,-13
Cc1ccc2nsnc2c1NC(=O)c1cccc([N+](=O)[O-])c1,95,i,1,-41,165,0.4,4
CCc1ccc(OCc2cnc(Cl)s2)cc1,98,i,0.9,-46,93,.,1
O=C(O)C1=C[C@H](c2cccs2)C[C@H](OCCCCO)O1,106,i,0.73,.,.,.,.
O=C(NNc1nc2ccccc2s1)c1ccccc1F,102,i,0.85,14,38,-1.1,0
O=C(N/N=C/c1ccccc1O)/C(=C/c1ccccc1)CCO,103,i,0.79,32,108,-0.8,3
Cc1cc(Cl)c(S(=O)(=O)NCc2ccccc2)cc1OCC(N)=O,105,i,0.88,23,92,-0.6,1
CN=c1sc(C(=O)Nc2ccccc2)c(C)n1C,102,i,1.1,.,.,.,-2
O=C(N/N=C/c1ccc(Br)s1)c1ccccc1[N+](=O)[O-],99,i,0.86,12,134,-0.3,7
CC(=O)Nc1ccc(S(=O)(=O)N2CCN(CC(O)COc3ccc4ccccc4c3)CC2)cc1 (centres undefined),99,i,1.2,-18,42,-2.2,-3
Cc1ccc2nc(/N=C(\N)NC(=O)N3c4ccccc4Sc4ccccc43)nc(C)c2c1,96,i,0.69,8,108,-2.9,1
CS(=O)(=O)N(Cc1ccccc1)c1ccccn1,107,i,1,12,119,-3.0,-3
Nc1ccccc1C(=O)N1CCCC1,100,i,0.99,.,.,.,-1
COc1cccc(CN2CCNC(=O)C2CC(=O)NCc2cn3cccc(C)c3n2)c1OC (centres undefined),115,i,1,.,.,.,2
O=C(Nc1ccc(F)cc1)N1CCN(c2nc3ccccc3s2)CC1,97,i,0.95,15,127,1.0,13
CC1CCCN(C(=O)c2ccc3c(=O)n(C4CCCC4)c(=S)[nH]c3c2)C1 (centres undefined),99,i,1,40,87,.,-4
O=C(NCc1cccnc1)/C(=N\O)c1ccccc1,101,i,0.74,38,66,-1.5,5
CCOc1ccc(Nc2ncnc3ccc([N+](=O)[O-])cc23)cc1,106,i,0.72,50,103,.,10
CCOC(=O)CN1C(=O)C(C)(C)Oc2ccc(C(=O)NC(C)(C)CC)cc21,101,i,1.1,.,.,-1.3,11
O=C(NCC(=O)N(CCN1CCOCC1)C(C(=O)NC1CCCC1)c1ccccc1)c1cccs1 (centres undefined),125,i,1,.,.,.,-6
CC1=C(OC(=O)c2ccccc2)C(C)(C)C(c2ccc(Br)cc2)OC1=O (centres undefined),99,i,0.98,-25,86,-0.4,-6
O=C(c1c[nH]c(C(=O)C(Cl)(Cl)Cl)c1)c1ccccc1Cl,102,i,0.94,.,.,-3.8,7
Cc1ccnc(N2CCC(C(=O)Nc3nnc(C)s3)CC2)n1,102,i,0.67,-50,108,-0.3,3

In a second layout: results already given
> COc1cccc(CN2CCNC(=O)C2CC(=O)NCc2cn3cccc(C)c3n2)c1OC (centres undefined)
  RGS16-Gao: 115	HSV augment: i	HSV augment primary fold: 1	INS promoter inh: .	INS promoter inh cell count: .	GALR2 ag: .	PKD1 inh: 2
> O=C(Nc1ccc(F)cc1)N1CCN(c2nc3ccccc3s2)CC1
  RGS16-Gao: 97	HSV augment: i	HSV augment primary fold: 0.95	INS promoter inh: 15	INS promoter inh cell count: 127	GALR2 ag: 1.0	PKD1 inh: 13
> CC1CCCN(C(=O)c2ccc3c(=O)n(C4CCCC4)c(=S)[nH]c3c2)C1 (centres undefined)
  RGS16-Gao: 99	HSV augment: i	HSV augment primary fold: 1	INS promoter inh: 40	INS promoter inh cell count: 87	GALR2 ag: .	PKD1 inh: -4
> O=C(NCc1cccnc1)/C(=N\O)c1ccccc1
  RGS16-Gao: 101	HSV augment: i	HSV augment primary fold: 0.74	INS promoter inh: 38	INS promoter inh cell count: 66	GALR2 ag: -1.5	PKD1 inh: 5
